rRNA inh HTS: inhibits bacterial ribosomal RNA function over humanized ribosomes; hit rate 1.6% among 350,000; GFP signal change (wild-type ribosome), % (no concentration beside the values); E. coli WT GFP vs humanized-ribosome RFP mutants, fluorescence, 24 h; stronger effect = lower value; DMSO median 0, no signal -100; AID 720706;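 active = significant combined selectivity score with lowered wild-type GFP, culture density cut under 30%, mutant RFP and density less affected; inactive = any of these conditions unmet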; also: one replicate is shown; some compounds called inactive have numbers as strong as hits
Bfl-1 A1 inh: inhibitors of the anti-apoptotic protein A1, read as caspase activation; MEF A1-2A-BIM cells, Caspase-Glo 3/7 luminescence, 3 h; percent of clofoctol response, vehicle zero; caspase activation, % (test concentration not listed); hit rate 0.066% among 330,000;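 active = over half of replicate activation scores above 10%, or exactly half above 10 with the replicate mean above 10; inconclusive = replicate mean below 10 yet half the replicates above 10; inactive = over half of replicates below 10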;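 also: wells of about 30 µL received 50 nL stock; many hits fall short of the cut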
Beta cell apopt: beta cell apoptosis inhibition. INS-1E cytokine-induced death, ATP luminescence, 48 h; percent of positive-control rescue, neutral wells zero. protection from apoptosis, % (no concentration beside the values). hit rate 0.8% among 300,000. AID 435005;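 active = all replicates at 75% or more, or half of them and the mean; inconclusive = half reach 75% but not the mean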;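 also: 0% = cytokine-treated negative control wells and 100% = positive control rescue; higher means more ATP so stronger rescue from cytokine killing; wells of about 40 µL received 100 nL stock; the first replicate is given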
UCH37 DUB inh: human UCH37 deubiquitinating enzyme inhibition; Q9Y5K5; purified proteasome/UCH37, Ub-AMC cleavage fluorescence; inhibition, % (test concentration not listed); hit rate 0.33% among 330,000;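 active = mean of two replicates above 20%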;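 also: 0% = compound-free wells with enzyme and 100% = wells lacking proteasome; stock transfer was 100 nL into about 20 µL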
Target sequence (Q9Y5K5 whole entry, looked up): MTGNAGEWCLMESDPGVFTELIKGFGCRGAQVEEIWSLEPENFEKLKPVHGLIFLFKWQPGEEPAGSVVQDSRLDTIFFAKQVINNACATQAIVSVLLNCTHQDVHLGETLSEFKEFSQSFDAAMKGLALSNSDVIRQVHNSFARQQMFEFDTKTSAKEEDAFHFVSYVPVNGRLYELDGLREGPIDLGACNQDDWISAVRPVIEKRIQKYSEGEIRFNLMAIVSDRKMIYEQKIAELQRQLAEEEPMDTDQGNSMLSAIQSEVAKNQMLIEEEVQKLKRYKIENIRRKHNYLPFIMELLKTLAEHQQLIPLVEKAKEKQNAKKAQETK
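Reagent: Ub-AMC substrate; assay system: Proteasome-associated human UCH37 deubiquitinase; controls: no-proteasome and no-compound wells; read-out: % inhibition of Ub-AMC cleavage fluorescence; timing: 30 min preincubation with enzyme, 25 min cleavage at room temperature; signal: AMC fluorescence from Ub-AMC cleavage, excitation 355 nm, emission 460 nm; buffer or medium: Tris-HCl pH 7.4 plus ovalbumin, ATP-MgCl2, DTT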
E coli growth: blocks Escherichia coli growth; OD600 absorbance (no concentration beside the values); OD600, 23 h; stronger effect = lower value; hit rate 0.21% among 330,000;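 active = OD600 absorbance below the run mean of sample wells minus 3.6 SD, in any replicate, cut at about 0.56 in these data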;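 also: stock transfer was 300 nL into about 60 µL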
MLL AF4-AF9 inh: inhibitors of human MLL-AF4/AF9 interaction | AlphaScreen, biotin-AF4 peptide binding to FLAG-AF9 | inhibition, % at 10 µM | hit rate 0.47% among 350,000 | P42568;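 active = every replicate reaching a set inhibition limit, whatever the replicate mean, cut at about 25% in these data; inconclusive = mean inhibition reaches that limit but some replicates miss it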;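 also: 0% = plate neutral control median and 100% = total signal loss; the record names both 10 and 1 µM as test concentration; the first replicate is given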
Target sequence (P42568 whole entry, looked up): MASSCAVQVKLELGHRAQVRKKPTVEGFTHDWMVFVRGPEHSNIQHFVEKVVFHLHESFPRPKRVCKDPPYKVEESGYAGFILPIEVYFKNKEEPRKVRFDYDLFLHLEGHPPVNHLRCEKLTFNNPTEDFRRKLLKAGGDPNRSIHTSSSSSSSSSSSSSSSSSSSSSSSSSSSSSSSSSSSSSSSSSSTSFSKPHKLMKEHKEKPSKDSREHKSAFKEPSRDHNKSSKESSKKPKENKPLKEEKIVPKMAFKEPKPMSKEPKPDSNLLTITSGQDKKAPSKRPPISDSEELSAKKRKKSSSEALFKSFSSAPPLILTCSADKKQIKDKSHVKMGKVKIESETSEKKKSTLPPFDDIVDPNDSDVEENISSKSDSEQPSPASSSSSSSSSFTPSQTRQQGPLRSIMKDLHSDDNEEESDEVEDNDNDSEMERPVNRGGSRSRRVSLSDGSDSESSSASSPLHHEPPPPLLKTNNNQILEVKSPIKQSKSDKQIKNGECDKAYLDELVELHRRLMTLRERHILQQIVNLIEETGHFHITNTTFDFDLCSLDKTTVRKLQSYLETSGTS
FGF22 binding: FGF22 (human) thermal shift binding; calls only at 9.99 µM; hit rate 1.5% among 340,000; recombinant FGF22 thermal shift, SYPRO orange fluorescence; percent of sucrose octasulfate shift, DMSO zero; Q9HCT0;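 active = melting point raised past a set limit in the mean and every replicate; inconclusive = no clear call; three in four hits are not shown here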
Target sequence (Q9HCT0 whole entry, looked up): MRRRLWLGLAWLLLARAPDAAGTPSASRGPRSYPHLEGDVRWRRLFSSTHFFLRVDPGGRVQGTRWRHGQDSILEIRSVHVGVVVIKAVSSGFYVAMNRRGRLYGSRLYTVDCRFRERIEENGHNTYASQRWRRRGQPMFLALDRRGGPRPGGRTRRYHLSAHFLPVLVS
T cruzi inh: T. cruzi replication inhibition; T. cruzi beta-gal in NIH3T3, luminescence, 90 h; hit rate 1.4% among 300,000; inhibition, % (concentration not given with the values);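 active = mean inhibition across valid replicates above about 55%, limit read from the data; inconclusive = mean below that limit but half or more replicates reach it; inactive = mean below it, under half of replicates reach it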;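 also: signal also drops with host cell toxicity which is not excluded here; 0% = plate median of DMSO wells and 100% = zero luminescence signal; higher percent means less beta-gal luminescence so fewer parasites; stock transfer was 50 nL into about 50 µL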
rRNA inh HTS OD600: second read-out of rRNA inh HTS, no call of its own (marks repeat the call); OD600 change, %; measured here: OD600 growth;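 optical density of the mix in the first replicate; 0 = DMSO median and -100 = no signal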
rRNA inh HTS RFP: recorded beside rRNA inh HTS, whose call it bears; RFP signal change, %; measured here: RFP humanized mutant strains;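 first replicate; 0 = DMSO median and -100 = no signal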
* marks the source's active call; other numbers are inactive results; i = inactive; ? = inconclusive; · = no result given. Only part of the results is shown; rates above refer to the full screens.

SMILES	rRNA inh HTS	rRNA inh HTS OD600	rRNA inh HTS RFP	Bfl-1 A1 inh	Beta cell apopt	UCH37 DUB inh	E coli growth	MLL AF4-AF9 inh	FGF22 binding	T cruzi inh
CCCCC1=CC2=C(c3ccco3)C(=O)C(C)(OC(=O)c3ccc(OC)cc3)C(=O)C2=CN1CCN1CCOCC1 (centres undefined)	·	·	·	0.4	-3	1.9	0.65	·	·	3
CN(Cc1ccccc1)C(=O)c1ccc(NC(=O)c2ccccc2)cc1	0	-2	0.5	-1.3	·	3.6	0.63	0.0	i	8
O=C(COc1c(Br)cc(Br)c2cccnc12)N1CCc2ccccc2C1	-44	-60	-4.8	-0.7	-6	-1.5	0.44*	4.4	i	3
COCCCNC(=O)/C(C#N)=C/c1ccc(F)cc1	2	8	-2.1	1.2	-3	6.1	0.69	1.0	i	-8
CC1=C(C(=O)OCC2CCCO2)C(c2cccc(O)c2)NC(=O)N1 (centres undefined)	11	1	1.0	0.2	-4	2.4	0.71	-6.6	i	-9
COc1cccc(CC(=NO)c2cccc(OC)c2)c1	-29	-39	-7.5	·	·	-2.3	0.65	12	i	·
O=[N+]([O-])c1cc(S(=O)(=O)N2CCOCC2)ccc1OCc1ccccc1C(F)(F)F	2	13	-0.7	·	·	-0.8	0.69	0.7	i	·
CCCn1c(=O)c(C(=O)NCCc2ccc(OC)c(OC)c2)c(O)c2ccccc21	-12	-9	-1.6	-0.1	1	3.3	0.67	1.9	i	10
CCC1=C(c2ccc(C)cc2)S(=O)(=O)N=C1N1CCC(C(=O)NCCCN2CCCCC2C)CC1 (centres undefined)	10	23	1.2	0.2	-4	6.8	0.7	6.2	i	24
O=C(COc1ccccc1Cc1ccccc1)Nc1cccc(S(=O)(=O)N2CCOCC2)c1	-12	-11	-6.0	?	1	0.3	0.68	-0.2	i	·
CCC(=O)N/C(=N/c1nc(C)cc(C)n1)Nc1cccc(OC)c1	-12	-6	-1.4	0.2	2	5.1	0.68	-4.1	i	2
CCC(C)(C)n1nnnc1C(c1ccc(O)c(OC)c1)N1CCc2ccccc2C1 (centres undefined)	·	·	·	0.8	-4	1.9	0.75	·	·	-1
CCOc1ccccc1NC(=O)Nc1ccc(CC#N)cc1	-17	-17	-2.0	-2.3	-3	2.0	0.58	1.1	i	1
CC1(C)CN(c2ccccc2)N(Cc2ccc(F)cc2)C1=O	·	·	·	1.0	-3	-0.9	0.73	·	·	-24
COc1cc(/C=C2\N=C(c3c(-c4ccccc4)noc3C)OC2=O)ccc1OC(C)=O	6	10	-1.3	0.1	5	-12	0.74	2.4	i	-12
CCCN(CC(=O)Nc1ccccc1OC)C(=O)c1ccncc1	2	9	-4.4	-1.0	-7	1.6	0.66	0.2	i	-8
COc1cc(NC(c2ccccc2)c2ccccc2)cc(OC)c1OC	·	·	·	0.9	-8	1.9	0.68	1.2	·	9
COc1ccc([C@H]2CC(=O)C=C(c3c(C)cc(C)cc3C)C2)cc1	-8	-15	-18	0.0	-6	1.5	·	-1.2	i	·
COc1ccc(NC(=O)CN(C)C2CCS(=O)(=O)C2)cc1 (centres undefined)	·	·	·	0.4	-3	3.8	0.67	-0.1	i	·
COc1cc(CNCCO)cc(Cl)c1OCc1ccc(Cl)cc1Cl	-54	-82	-15	-0.4	108*	8.7	0.66	14	·	47

3 entries picked at random from those above:
SMILES	rRNA inh HTS	rRNA inh HTS OD600	rRNA inh HTS RFP	Bfl-1 A1 inh	Beta cell apopt	UCH37 DUB inh	E coli growth	MLL AF4-AF9 inh	FGF22 binding	T cruzi inh
O=[N+]([O-])c1cc(S(=O)(=O)N2CCOCC2)ccc1OCc1ccccc1C(F)(F)F	2	13	-0.7	·	·	-0.8	0.69	0.7	i	·
COCCCNC(=O)/C(C#N)=C/c1ccc(F)cc1	2	8	-2.1	1.2	-3	6.1	0.69	1.0	i	-8
O=C(COc1c(Br)cc(Br)c2cccnc12)N1CCc2ccccc2C1	-44	-60	-4.8	-0.7	-6	-1.5	0.44*	4.4	i	3

Continuation.
SMILES	rRNA inh HTS	rRNA inh HTS OD600	rRNA inh HTS RFP	Bfl-1 A1 inh	Beta cell apopt	UCH37 DUB inh	E coli growth	MLL AF4-AF9 inh	FGF22 binding	T cruzi inh
O=C(Nc1sc2c(c1C(=O)O)CCCCC2)c1cccs1	-42	-57	-9.6	-11	-2	7.9	0.64	-3.0	·	3
COc1ccc(NC(=O)CSc2nnc3ccc(-c4ccncc4)nn23)cc1	1	4	-0.9	-0.2	-3	4.3	0.68	1.5	i	-9
CC(=O)Nc1ccc(OCC(=O)NCc2ccc(C)cc2)cc1	7	0	3.2	-0.4	-8	2.3	0.72	-1.3	i	-7
O=C(NC1CC1)c1cc(OCC(F)(F)F)ccc1OCC(F)(F)F	-47	-55	-17	-0.6	-4	2.1	0.68	-0.8	i	-4
CCOc1cc(Br)c(Br)c(C=Nc2ccc(NC(C)=O)cc2)c1O	9	13	6.6	2.1	-3	6.1	0.72	7.3	i	-9
COc1cccc(OC)c1C(=O)NC(=S)N1CCOCC1	23	17	2.3	1.0	-6	5.1	0.67	-0.6	i	5
Cc1ccsc1C(=O)OCC(=O)NCc1ccccc1	4	6	0.3	-2.9	-1	0.6	0.68	0.4	i	·
Cc1csc(Nc2ccccc2)n1	1	11	9.5	0.7	-2	1.8	0.64	-2.4	i	2
COc1ccc(N2CS(=O)(=O)/C(=C/N(C)C)C2=O)cc1	·	·	·	-1.2	-1	0.3	0.69	·	·	-5
CC[C@@]1(C(=O)OC)N[C@H](CN(C)C(=O)COC)[C@@H]2C(=O)N(Cc3ccccc3)C(=O)[C@@H]21	12	6	2.5	·	·	0.3	0.7	1.3	i	·
OCCC1CN(Cc2cccc(F)c2F)CCN1CCc1ccccc1 (centres undefined)	-2	2	-1.1	0.2	0	2.9	0.71	-0.1	i	15
C=Cc1ccc(N=Cc2c(O)ccc3ccccc23)cc1	-8	11	-1.2	1.4	-5	5.1	0.7	-4.3	i	-6
COc1ccc(S(=O)(=O)N2CCN(CC(=O)N3CCc4ccccc4C3)CC2)cc1OC	3	-13	0.6	1.3	-6	-0.1	0.71	-0.9	i	·
CCc1noc(C)c1C(=O)N1CCN(S(=O)(=O)c2ccc(C)cc2)CC1	-1	4	-0.6	0.0	-2	4.6	0.68	-39	i	-2
O=C(c1cc(=O)c2ccccc2o1)N(Cc1ccccc1)C1CCS(=O)(=O)C1 (centres undefined)	4	1	-0.6	·	·	-1.3	0.7	0.1	i	3
CCN(Cc1nc(-c2ccccc2)no1)C(=O)c1ccoc1C	-6	-5	1.6	0.3	-1	2.9	0.7	-0.1	i	9
CCC1(c2ccccc2)NC(=O)N(CC(=O)Nc2ccc(Cl)c(S(=O)(=O)N3CCCCC3)c2)C1=O (centres undefined)	-11	-19	5.3	0.4	-2	0.3	0.68	3.4	i	-1
Cc1ccc(CNC(=O)c2cnc3ccccc3n2)cc1	-1	-4	-1.3	-0.6	-4	4.0	0.68	-1.6	i	2
Cc1ccc(S(=O)(=O)N2C/C=C\CN(S(=O)(=O)c3ccccc3Br)CC2)cc1	-16	0	8.2	·	·	3.0	0.75	-0.5	i	·
O=C(NC1CCCC1)C1CC1c1ccccc1 (centres undefined)	·	·	·	0.9	3	1.8	0.64	·	·	14
CNc1ccc(/C=C(\CCC(=O)O)c2nc3ccccc3s2)cc1[N+](=O)[O-]	·	·	·	-0.7	6	19	0.73	·	·	8
COc1ccc(-n2c(-c3ccccc3)c[n+]3c2CCC3)cc1	17	41	3.0	-0.4	46	3.9	0.72	-0.3	i	12
CCOc1cc(NC(=O)C2CC2)c(OCC)cc1NC(=O)c1cccc(F)c1	10	16	0.6	0.6	-4	-103	0.7	-2.4	·	11
OC(COc1ccc(Cl)cc1)CN1C2=NCCCN2c2ccccc21 (centres undefined)	·	·	·	-0.4	·	0.1	0.7	·	·	17
Cn1ccsc1=NC(=O)c1ccc(Cl)c([N+](=O)[O-])c1	2	-2	-1.7	-1.2	0	5.9	0.68	0.0	i	27
CCc1ccccc1NC(=O)CSc1nnc([C@@H](N)Cc2ccccc2)o1	·	·	·	0.1	-19	2.2	0.72	·	·	·
COc1cccc(N=Nc2c(N)[nH][nH]c2=O)c1	8	5	-1.3	-3.0	5	16	0.67	6.2	i	-6
Cc1cccc(-c2c(NC(=O)c3ccco3)oc3c(C)cccc3c2=O)c1	2	12	0.3	-0.7	3	0.9	0.68	-2.3	i	-5
CC(C)CC1NC(=O)c2cc(Cl)ccc2-n2c1nc1ccc(F)cc1c2=O (centres undefined)	-2	3	-2.7	0.1	-5	·	·	4.9	i	·
COc1ccc(CCNC(=O)Nc2ccc3c(c2)OCO3)cc1OC	·	·	·	2.0	1	2.6	0.68	-0.1	·	-1
CCc1ccccc1NC(=O)c1ccc2c(c1)CCN2S(C)(=O)=O	12	14	0.4	0.4	7	-2.3	0.71	2.3	i	-2
NS(=O)(=O)c1cccc(NC(=O)CSc2nc3ccccc3c(=O)n2Cc2ccco2)c1	-6	0	1.1	0.2	2	-0.6	0.64	-1.1	i	·
CCCCn1c(NS(=O)(=O)c2ccc(C)cc2)c(S(=O)(=O)c2ccccc2)c2nc3ccccc3nc21	1	6	20	-0.4	3	-197	·	1.7	i	-14
CCN1CCCC1CNC(=O)c1ccc2c(c1)N(Cc1ccccc1F)C(=O)c1ccccc1S2(=O)=O (centres undefined)	1	8	-3.1	·	·	0.3	0.64	9.9	i	30
COc1ccc(C(O)C(CN2CCOCC2)c2ccccc2)cc1 (centres undefined)	·	·	·	-0.4	4	4.2	0.73	·	·	-12
COc1ccc(C(=O)NC(C)CCc2ccccc2)c(OC)c1 (centres undefined)	-2	5	-1.9	0.1	-3	3.9	0.7	-0.8	i	14
COC(=O)c1cc(-c2ccc(Cl)cc2)n[nH]1	-12	-10	-5.1	-1.3	-2	2.8	0.69	-3.6	i	-3
C=CCN(Cc1cccc(OC)c1OC)C(=O)Oc1ccccc1	-4	-9	-1.6	0.4	0	2.7	0.67	-4.0	i	·
Cc1cccc(CSCCNC(=O)CSCc2ccc([N+](=O)[O-])cc2)c1	·	·	·	-0.5	·	0.5	0.72	·	·	0
CC(C)[C@H](NC(=O)C1CCN(S(=O)(=O)c2ccc(F)cc2)CC1)C(=O)NCc1ccco1	3	-3	1.4	-0.6	-4	0.9	0.68	-2.6	i	10
CC(C)(C)c1csc(NC(=O)C2=COCCO2)n1	-9	-3	-5.9	-0.3	-4	2.3	0.69	3.9	i	3
CCOC(=O)C1CCN(Cc2ccc3ccccc3c2)CC1	12	10	1.1	0.5	-6	0.5	0.7	0.3	i	3
Cc1cccc(NC(=S)NCC(c2ccccc2)N(C)C)c1 (centres undefined)	14	10	1.1	-0.3	3	5.5	0.65	-0.3	i	-3
Cc1ccc(C(=O)NCC(=O)OCc2nnc(-c3ccc([N+](=O)[O-])cc3)o2)s1	-6	10	-5.5	0.4	3	-0.2	0.66	-4.2	i	·
